Screening results as filed in PubChem BioAssay.
BJeLR lethal: MLPCN primary cell-based screen for lethality selective to Ras in HRASV12 cells; BJeLR (HRASV12) viability, CellTiter-Glo ATP luminescence, 48 h; reference of the scale not given here; inhibition, % (concentration not given with the values); actives 0.17% (n = 300,000); AID 1554, 2009;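 active = replicate mean above 50%; inconclusive = above 50% but judged a plate artefact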;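 also: 50 nL library stock added to about 25 µL; numbers are from one replicate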
Autofluor counter: flagged as autofluorescent in microsphere protease counterscreen. compound autofluorescence counterscreen, microsphere flow cytometry; hits give high values. fluorescence intensity (no concentration beside the values). actives 3.1% (n = 360,000);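 active = at least 3 SD above the mean of all compounds, about 16000 in these data; inconclusive = too few beads counted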;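 also: 100 nL of 1 mM stock went into each well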
Mtb hypoxia inh: PubChem AID 1159583; actives 0.1% (n = 300,000); M. tuberculosis hypoxia-regulated fluorescent reporter, fluorescence; fluorescence inhibition, % (test concentration not listed);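 active = 35 to 45% if threefold the growth effect, above 45% if 1.5-fold the growth effect; inactive = the rest, general growth blockers included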;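 also: wells of about 50 µL received 100 nL stock; 0% = vehicle wells and 100% = reference inhibitor wells; whole bacteria with a GFP reporter of the hypoxia response; strong numbers were not always called active; many hits fall short of the cut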
ugtP null kill: growth inhibition of ugtP-null S. aureus, primary screen, RN4220 ugtP deletion, OD600 | growth inhibition, % (no concentration beside the values) | AID 1259309, 2017 | 16 h; some inactives read as strong as hits | actives 0.54% (n = 330,000);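 active = z-score under -3 and OD600 up to 0.15 on both plates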;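 also: plate controls were untreated wells for no effect and antibiotic for full effect; wells of about 80 µL received 100 nL stock; the first replicate is given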
Sa RN4220 lethal: growth inhibition of S. aureus RN4220, primary screen, OD600; inhibition, % (concentration not given with the values); 16 h; AID 1259311, 2017; actives 0.33% (n = 330,000);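 active = z-score of -3 or lower and OD600 up to 0.18 on both plates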;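 also: plate controls were untreated cells for no effect and reference antibiotic for full effect; stock transfer was 100 nL into about 80 µL; one replicate is shown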
PrP UTR inh: inhibition of PrP 5' UTR reporter expression; cell-based PrP 5' UTR mRNA reporter, plate reader; inhibition, % (test concentration not listed); actives 0.35% (n = 340,000);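 active = every replicate at 50% or more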;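 also: 0 = median of the neutral control wells; tested in H4 reporter cells; numbers are from one replicate; inactives centre near -14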
Mtb hypoxia inh growth: second read-out of Mtb hypoxia inh, no call of its own (marks repeat the call); growth inhibition, %; measured here: M. tuberculosis growth (absorbance);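 0% = vehicle and 100% = reference antibiotic; read after six days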
Numbers without * were called inactive; ? = inconclusive; / = not tested or not shown; & = joins results of further samples.

SMILES | BJeLR lethal | Autofluor counter | Mtb hypoxia inh | Mtb hypoxia inh growth | ugtP null kill | Sa RN4220 lethal | PrP UTR inh
CC(C(=O)NCc1ccccn1)N1C(=O)c2ccccc2C1=O (configuration not stated) | 11 | 11414 | 5 | 17 | -2 | -0.8 | -13
O=C(Cc1c(F)c(F)c(F)c(F)c1F)OC12CC3CC(C1)C(=O)C(C3)C2 | -3 | 8928 | 1 | 6 | -2 | 0.3 | 0
Cc1cc(O)c(C(C)C)cc1NC(=S)Nc1cc(C(C)C)c(O)cc1C | / | 3875 | 1 | 14 | -28 | -13 | -12
CCOC(=O)/C(C#N)=C/C1=C(N2CCCC2)CC(C)(C)OC1 | -1 | 2746 | / | / | -7 | 1.4 | -8
CCN(c1ccccc1)S(=O)(=O)c1ccc(C(=O)Nc2nnc(COC)o2)cc1 | -3 | 3919 | / | / | -10 | 16 | -24
COc1cccc(Oc2c(C)oc3c(CN4CCOCC4)c(O)ccc3c2=O)c1 | / | 3331 | 2 | 6 | 3 | 0.6 | -3
Cc1sc2nc(CN(Cc3ccccc3)C(=O)NC3CCCCC3)[nH]c(=O)c2c1C | -6 | 4141 | -10 | 0 | -22 | 13 | -4
CN(Cc1ccccc1)c1nc(N)c([N+](=O)[O-])c(Nc2cccc(F)c2)n1 | -4 | 10180 | 13 | 5 | 33 | 46 | -18
O=S(=O)(c1cccc(Br)c1)N1CCN(C(=S)NCC2CCCO2)CC1 (configuration not stated) | 5 | ? | -13 | -13 | 0 | 2.0 | 7
Cc1cccc(NC(=O)COC(=O)CNC(=O)C2CCCCC2)c1 | 16 | 4721 | / | / | 2 | -0.1 | -13
Cc1cc(OCCN2CCOCC2)ccc1C(C)C | -6 | 3964 | 19 | 3 | 2 | 9.4 | -20
COc1ccc(C(=O)NNC(=O)CN2CCC(n3nnc4cc(F)ccc43)CC2)cc1 | 10 | 9553 | 8 | 5 | -3 | 5.8 | 4
CCC1CN(C(=O)NCc2ccccc2)c2cc(Cl)ccc2O1 (configuration not stated) | -7 | 3646 | -2 | 1 | 6 | 3.9 | -7
CCCn1c(C(O)c2ccc(OC)cc2)nc2ccccc21 (configuration not stated) | / | 3650 | / | / | 3 | -2.7 | -8
CCOC(=O)c1ccccc1OCc1cc(/C=N/n2cnnc2)ccc1OC | 2 | 4243 | / | / | / | / | -21
Cc1ccc(NC2OC(CO)C(O)C2O)cc1[N+](=O)[O-] (configuration not stated) | -4 | 7443 | / | / | / | / | -25
Cc1c(C=O)c(=O)n(-c2ccccc2)n1-c1ccccc1 | 0 | 10115 | -1 | -3 | 8 | -4.5 | -6
CCC1CCCCN1C(=O)CN1C(=O)c2ccccc2S1(=O)=O (configuration not stated) | 10 | / | 9 | 0 | 8 | 4.0 | -8
O=C(NCc1ccccn1)Nc1ccccc1 | -2 | 4141 | 10 | 4 | 9 | 2.7 | -45
O=C(Nc1cccc(F)c1)c1cc(S(=O)(=O)N2CCOCC2)cs1 | 3 | 4775 | 6 | 5 | -2 | 1.9 | -8
NCCCn1c(C(=O)c2cc(Cl)c(N)c(Cl)c2)c2ccc(C(F)(F)F)cc2[n+]1[O-] | -3 | 3622 | / | / | 5 | 0.9 | -15
COc1ccc(S(=O)(=O)c2c(N)n(Cc3ccco3)c3nc4ccccc4nc23)cc1 | 8 | 3549 | -5 | 3 | -16 | -17 | 5
COc1cccc(N2CCc3c(C)nc4ccc(Cl)cc4c32)c1 | 15 | 3742 | 13 | 6 | 5 | -6.3 | -16
CC(=O)Nc1cccc(NS(=O)(=O)c2ccccc2[N+](=O)[O-])c1 | 1 | ? | 3 | 13 | -1 | 6.0 | -20
N/C(=N\OC(=O)CC1CCCCC1)c1cccnc1 | 5 | 10516 | 20 | 4 | 8 | 1.4 | -45

New compounds follow:
SMILES | BJeLR lethal | Autofluor counter | Mtb hypoxia inh | Mtb hypoxia inh growth | ugtP null kill | Sa RN4220 lethal | PrP UTR inh
C/C(CC(=O)Nc1ccc(F)cc1)=N\NC(=O)Cc1csc(N)n1 | 5 | 10595 | / | / | / | / | 14
CCOc1ccc(N2CC(C(=O)NCCc3c[nH]c4ccc(C)cc34)CC2=O)cc1 (configuration not stated) | -5 | 4136 | 9 | 6 | -1 | 1.9 | -25
Cc1ccc(N(CC(=O)N/N=C/c2cc(C)n(-c3ccccc3)c2C)S(C)(=O)=O)c(C)c1 | -4 | 3884 | / | / | / | / | -10
O=C(NC(=S)NC1CCSC1=O)c1ccc([N+](=O)[O-])cc1 (configuration not stated) | 0 | 4443 | / | / | / | / | 3
CCSC(=N)N | / | 6051 | 3 | 0 | -3 | 7.2 | -14
N#C/C(=N/Nc1ccc(OC(F)(F)F)cc1)C(N)=S | 29 | 6363 | / | / | / | / | -60
CCN(CCCNC(=O)COc1cc(=O)n(C)c2ccccc12)c1ccccc1 | -1 | 8949 | 9 | 0 | 4 | 1.7 | -36
COc1cccc(/C=N/NC(=O)CNC(=O)C2COc3ccccc3O2)c1O (configuration not stated) | 4 | 2119 | / | / | / | / | -12
CCN(C(=O)CSc1nnnn1-c1ccccc1)C1CCS(=O)(=O)C1 (configuration not stated) | -11 | 3823 | -2 | 10 | 5 | 0.4 | -4
Cc1cccc(Oc2ccc(S(=O)(=O)N3CCCCC3)cc2NC(=O)C2=COCCO2)c1 | / | 3517 | 4 | 1 | 3 | 8.4 | -12
CCN1CCN(c2ncc(C(=O)Nc3c(F)cc(F)cc3Br)c3ccccc23)CC1 | 2 | 2898 | / | / | -8 | 1.1 | -7
COc1ccc(CC(=O)O/N=C(\N)c2ccccn2)cc1 | -3 | 4406 | 14 | 5 | 11 | 3.0 | -15
CCN1CCN(C(=O)c2ccccc2NC(=O)c2ccc(Cl)cc2)CC1 | -1 | 6095 | 6 | -17 | 6 | 0.9 | -9
CC(OC(=O)c1[nH]cnc1C(=O)NCc1ccc(CNC(=O)OC(C)(C)C)cc1)c1ccccc1 (configuration not stated) | / | / | -10 | -12 | 8 | 6.2 | /
Cc1[nH]c2ccc(C(=O)NCCCN3CCCC3)cc2c1C | -5 | 6580 | 3 | -8 | 4 | 1.6 | -12
O=C(/C=C/c1cccc(F)c1)NCCCn1ccnc1 | 11 | 3470 | 16 | 8 | 6 | 4.8 | 5
O=C(C1=CC(c2ccc(Br)cc2)CC(OCCCCO)O1)N1CCN(Cc2ccccc2)CC1 (configuration not stated) | / | / | 2&5 | -2&-9 | 2&12 | 6.0&6.3 | /
O=C1NC(c2cccc(Br)c2)=N/C1=C\c1ccco1 | -10 | 2704 | 5 | 5 | 16 | -1.1 | -54
C=CCSc1nc2c(c(=O)[nH]c(=O)n2C)n1C/C=C(/C)Cl | -2 | 2378 | / | / | -1 | 2.6 | -10
O=C(CCC(=O)OCc1ccc([N+](=O)[O-])cc1)Nc1ccccc1Cl | -14 | 2215 | -12 | 13 | 10 | -1.6 | -24
C=CC1c2ccccc2N(S(=O)(=O)c2ccc(C)cc2)C(c2ccccc2)C1(C#N)C#N (configuration not stated) | / | / | -1 | 4 | -4 | 19 | /
O=C1CC(c2ccccc2Oc2cccc(Cl)c2)C(n2cncn2)C(=O)C1C1NCCc2ccccc21 (configuration not stated) | -6 | 4584 | 4 | -4 | 6 | 0.6 | -21
CC(C)NC(=O)COc1cccc2ccccc12 | 10 | 4323 | 5 | -5 | -2 | 8.4 | -22
CCN(CC)C(=O)C12CC3CC(CC(Cl)(C3)C1)C2 | 5 | 2314 | 10 | 5 | -6 | 7.1 | -6
CCC(=NCc1cc(OC)cc(OC)c1)c1c(O)[nH]c(=O)[nH]c1=O | -4 | 3434 | 4 | 1 | 5 | 3.2 | -16

Rewritten in CSV form: part of the list above.
SMILES,BJeLR lethal,Autofluor counter,Mtb hypoxia inh,Mtb hypoxia inh growth,ugtP null kill,Sa RN4220 lethal,PrP UTR inh
COc1ccc(CC(=O)O/N=C(\N)c2ccccn2)cc1,-3,4406,14,5,11,3.0,-15
CC(C)NC(=O)COc1cccc2ccccc12,10,4323,5,-5,-2,8.4,-22
C=CC1c2ccccc2N(S(=O)(=O)c2ccc(C)cc2)C(c2ccccc2)C1(C#N)C#N (configuration not stated),/,/,-1,4,-4,19,/
C/C(CC(=O)Nc1ccc(F)cc1)=N\NC(=O)Cc1csc(N)n1,5,10595,/,/,/,/,14
O=C(C1=CC(c2ccc(Br)cc2)CC(OCCCCO)O1)N1CCN(Cc2ccccc2)CC1 (configuration not stated),/,/,2&5,-2&-9,2&12,6.0&6.3,/
O=C(NC(=S)NC1CCSC1=O)c1ccc([N+](=O)[O-])cc1 (configuration not stated),0,4443,/,/,/,/,3
O=C(CCC(=O)OCc1ccc([N+](=O)[O-])cc1)Nc1ccccc1Cl,-14,2215,-12,13,10,-1.6,-24

Continued.
SMILES | BJeLR lethal | Autofluor counter | Mtb hypoxia inh | Mtb hypoxia inh growth | ugtP null kill | Sa RN4220 lethal | PrP UTR inh
CCOC(=O)N1CCN(S(=O)(=O)c2ccc(C)c(C)c2C)CC1 | / | 4323 | / | / | 12 | -0.1 | -12
COc1cccc(Nc2nc(-c3cccc(N4C(=O)c5ccccc5C4=O)c3)cs2)c1 | 0 | 2859 | 7 | 6 | 3 | 6.5 | -30
CCN(CC)C(=O)Cn1cc(C(=O)C(=O)NCC2COc3ccccc3O2)c2ccccc21 (configuration not stated) | / | 4333 | 12 | 0 | 4 | 1.9 | 2
CCOC(=O)C1CCCN(C(=O)c2cccc(NC(=O)C(CC)CC)c2)C1 (configuration not stated) | 4 | 3615 | 18 | 7 | -4 | 12 | -7
CCN(C(C)=O)c1ccc(Oc2nc(OC)cc(OC)n2)cc1 | 1 | 2559 | 19 | 11 | 15 | 4.4 | 1
COc1ccc2c(c1)oc(=O)c1c3ccccc3[nH]c21 | 16 | 2826 | -2 | 6 | 33 | 0.9 | -105
CCC1(C)Cc2nc3[nH]c(=S)n(-c4ccccc4C)c(=O)c3cc2CO1 (configuration not stated) | 3 | 5252 | -37 | -10 | -6 | -0.4 | -18
CCNc1nnc(-c2ccccc2OC)s1 | -11 | / | 23 | 17 | -7 | -16 | /
CN(CC(=O)Nc1ccccc1Br)C(=O)c1cccnc1Nc1cccc(C(F)(F)F)c1 | -3 | 5581 | 1 | 3 | 11 | -6.8 | -3
NC(=S)n1[nH]c(-c2ccc([N+](=O)[O-])cc2)c(N=Nc2cccc(Cl)c2)c1=O | 26 | 3359 | 5 | 3 | 6 | 23 | 3
CC(CCc1ccccc1)NC(=O)CN1CCN(c2ccccc2)CC1 (configuration not stated) | 4 | 3262 | 10 | 0 | 7 | -2.1 | -20
O=C(NCc1ccco1)c1ccc(COc2ccccc2Cl)cc1 | -5 | 3782 | / | / | 3 | -7.9 | -31
Cc1cc(C)cc(OCC(=O)N(Cc2ccc(N(C)C)cc2)C2CCS(=O)(=O)C2)c1 (configuration not stated) | -4 | 4321 | -11 | -3 | 4 | 4.8 | -18
COCCCN1Cc2ccccc2C1=N | -1 | 7747 | 3 | -2 | 1 | 1.5 | -21
Cc1ccc(NS(=O)(=O)c2ccc(Br)s2)nc1 | 7 | 4734 | 8 | -1 | 14 | 5.9 | -23
CC(=O)Nc1ccccc1-c1nc2ccccc2nc1OCC(=O)c1ccc2ccccc2c1 | -9 | 9526 | 1 | -4 | -16 | -1.5 | -15
COc1cccc(NC(=O)C(c2ccccc2)N2CCCCC2)c1 (configuration not stated) | 1 | 4434 | 9 | -4 | 11 | -1.3 | -14
O=C(Nc1cccc(Cl)c1)c1cccc(Oc2ccc([N+](=O)[O-])cc2Cl)c1 | 2 | 2019 | 1 | 6 | -22 | -12 | -13
COCc1nc2oc3ccc(C)cc3c(=O)c2cc1C(=O)OC | 6 | 3179 | 6 | -3 | 5 | 1.9 | /
Cc1ccccc1C(C)NS(=O)(=O)c1ccc2c(c1)OCCO2 (configuration not stated) | / | 3112 | 22 | 32 | -1 | 9.0 | -12
CCn1cnc2c1c(=O)n(Cc1nnc3n1-c1ccccc1SC3)c(=O)n2Cc1ccccc1 | 1 | 3292 | 3 | 7 | 0 | -13 | -5
O=C(O)CC(NC(=O)COc1ccc(Cl)cc1Cl)C(=O)O (configuration not stated) | 5 | 3925 | / | / | 3 | 0.3 | -7
Nc1nnc(CSCc2ccccc2Cl)s1 | -4 | 3635 | 5 | -2 | 8 | 2.1 | -13
Nc1ccc(C(=O)c2cccs2)cc1[N+](=O)[O-] | 1 | 3327 | 0 | -2 | 17 | 11 | -34
